Screening results from PubChem BioAssay.
motility: Vibrio cholerae motility inhibitors, OD read-out (AID 588778); Vibrio cholerae motility, OD read-out; higher % means a stronger effect; test concentration not given here; primary cut-off and reference of the scale not given here; strong numbers were not always called active; one-dose inhibition, %; IC50 in µg/mL for titrated hits; 10,000 tested, under 10 active; in the data active = confirmed in a dose series
motility viability: further read-out of motility, marked with its call; inhibition, %; measured here: bacterial viability at 10 ug/mL;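 higher means fewer living bacteria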
* hit, by the source's call. A portion of the library. The share of hits here may be higher or lower than overall.

Order of values: motility	motility viability
O=C(CSc1nc(N2CCCCC2)nc(N2CCCCC2)n1)Nc1nccs1
  18%	6
C=CCN1C(=O)c2ccccc2C1(O)Cc1ccccc1 (stereo unspecified)
  20%	3
Cc1ccc(SCc2cc(=O)[nH]c(SCC(=O)Nc3cc(Cl)ccc3Cl)n2)cc1
  19%	2
NS(=O)(=O)c1ccc(NC(=S)Nc2ccn(Cc3cccc4ccccc34)n2)cc1
  3%	-6
Cc1ccc(S(=O)(=O)N(CC(=O)N2CCc3ccccc3C2)c2ccccc2Cl)cc1
  -8%	2
CCOC(=O)c1c(-c2ccc(F)cc2)csc1NC(=O)C1CC=CCC1C(=O)O (stereo unspecified)
  -6%	-5
CCn1cc(CNC(=O)c2ccc(OC)c([N+](=O)[O-])c2)c(C)n1
  -12%	4
O=C(O)c1nc(N2CCOCC2)nc(N2CCOCC2)n1
  1%	-2
COC(=O)NC1(C(F)(F)F)NC(=O)N(C2CCCC2)C1=O (stereo unspecified)
  -10%	-6
CCOC(=O)N1CCN(S(=O)(=O)c2cc(F)ccc2OC)CC1
  -1%	-4
COc1cccc(OCc2cc(C3Nc4ccccc4C(=O)N3Cc3ccccc3)ccc2OC)c1 (stereo unspecified)
  -7%	-6
CCn1c2ccccc2c2cc(CN3CCC(N4CC(C)OC(C)C4)CC3)ccc21 (stereo unspecified)
  0%	33
N#C/C(=C/c1ccc(-c2ccccc2C#N)o1)c1ccc(F)cc1
  3%	-3
Cc1cc(NC(=O)c2cncc(Br)c2)no1
  -17%	-11
O=C(NC1C2CC3CC(C2)CC1C3)c1cc2ccccc2o1 (stereo unspecified)
  -19%	-8
O=C(CN1CCCCC1)NN1C(=O)c2cccc3cccc(c23)C1=O
  6%	21
COCCCNC(=S)NNC(=O)c1ccoc1C
  -3%	-3
O=C(NCc1ccco1)c1cc(-c2cccnc2)nc2ccc(Br)cc12
  15%	5
COc1cccc(OCCOc2cccc(C(C)C)c2)c1
  -11%	-6
Cc1cc(NC(=O)c2ccc(CSc3ccccc3)o2)no1
  6%	-11
CC1Cc2ccccc2N1C(=O)c1ccc2nc(N3C(=O)CCC3=O)sc2c1 (stereo unspecified)
  -24%	-10
CC1=C(C(=O)OCC2CCCO2)C(c2ccc(C)s2)C2=C(CC(c3ccco3)CC2=O)N1 (stereo unspecified)
  0%	-4
CC1=CC(=C2C(=O)NC(=S)NC2=O)C=C(C(F)(F)F)N1C(C)C
  14%	3
Cc1ccc(NC(=O)C(c2ccccc2)N2CCOCC2)cc1 (stereo unspecified)
  -2%	-1
O=C(Nc1ccc(Br)cc1Cl)Nn1cnnc1
  12%	-11
Cc1[nH]c2ccc(Cl)cc2c1CC(=O)O
  -13%	-7
O=C1CC(NNc2nc3ccccc3s2)C(=O)N1c1ccccc1 (stereo unspecified)
  -26%	-7
O=C(C(=O)N1CCN(c2ccc(F)cc2)CC1)N1CCCCC1
  7%	3
COc1ccc(Cc2ccc(OC)cc2)cc1
  0%	-3
OC1CCCN(C(=S)NCc2ccccc2)C1 (stereo unspecified)
  16%	6
COc1ccc(C2CC(=O)CC(c3ccc(OC)cc3)S2)cc1 (stereo unspecified)
  -1%	-8
COc1ccc(NC(=O)C2CC2c2ccccc2)c([N+](=O)[O-])c1 (stereo unspecified)
  10%	-2
COc1ccc(OC)c(C(C)NC(=O)c2cc(Br)cs2)c1 (stereo unspecified)
  21%	9
CC(NC(=O)c1ccc(-c2ccc(Cl)cc2Cl)o1)c1ccccc1 (stereo unspecified)
  18%	33
O=C(CSc1ncnc2nc[nH]c12)N1CCOCC1
  -16%	-3
Fc1ccc(CSc2nnc(-c3cccc(Br)c3)n2-c2ccccc2)cc1
  -8%	-5
COc1ccccc1N1CCN(c2cc(N3CCNCC3)ccc2[N+](=O)[O-])CC1
  3%	-3
O=c1nc(NCc2ccco2)sc2ncccc12
  34%	8
Cc1ccccc1Nc1nc(Cl)nc(N2CCOCC2)n1
  -11%	0
Cn1nnc2cc(C(=O)Nc3cccnc3)ccc21
  6%	-9
COC(=O)c1ccc(NC(=O)CSc2nc(C)c(C)c(=O)[nH]2)cc1
  1%	-1
COc1ccc(CCC(=O)NCc2cnn(C)c2)cc1
  8%	10
O=C(COc1ccc(C(=O)NC2CCCCC2)cc1)Nc1ccccc1F
  -6%	-12
O=C(CN(c1ccccc1F)S(=O)(=O)c1ccccc1)NC1CC2CCC1C2 (stereo unspecified)
  -7%	-4
Cc1occc1C(=O)Nc1nc2ccc([N+](=O)[O-])cc2s1
  52%	6
O=C(NC1CCS(=O)(=O)C1)c1ccc(S(=O)(=O)NCC2CCCO2)cc1 (stereo unspecified)
  2%	-2
O=C(NCc1cccs1)c1ccc(C(=O)NCc2cccs2)nc1
  -4%	-4
COc1ccc(-c2cccc(C(N)=O)c2)cc1
  9%	-1
COc1ccc(N(C(C)C(=O)Nc2ccccc2C(=O)NC2CCCCC2)S(C)(=O)=O)cc1 (stereo unspecified)
  0%	1
O=c1c2ccccc2nnn1Cc1ccc(-c2cnc3ccccc3n2)cc1
  -5%	-4

(further entries)
Order of values: motility	motility viability
CN(Cc1ccccc1)C(=S)NC(=O)c1ccc(C(C)(C)C)c(Br)c1
  17%	9
O=C(CCN1Cc2ccccc2C1)c1ccc2c(c1)OCCO2
  -3%	1
CN(C)S(=O)(=O)c1ccc(C(=O)Oc2ccc(-c3cnc4ccccc4n3)cc2)cc1
  15%	1
Cc1cc(OC(=O)C2CC(=O)N(c3ccc(Br)cc3)C2)ccc1N1C(=O)CCC1=O (stereo unspecified)
  6%	12
O=C(COc1ccccc1)NC(=S)Nc1ccc2c3c(cccc13)CC2
  -9%	-10
O=c1c2c3c(sc2nc2c4ccccc4c(Sc4ccc5c(c4)OCCO5)nn12)CCCC3
  18%	-1
CC(C)CCN1C(=O)c2ccc(C(=O)O)cc2C1=O
  9%	18
COc1ccc(/C=C(/C#N)S(=O)(=O)c2ccccc2)cc1CSc1nc(C)cc(C(F)F)n1
  -11%	-6
CS(=O)(=O)N1CCc2cc(C(=O)N3CCOCC3)ccc21
  13%	-1
O=C(O)C1CCCN1S(=O)(=O)c1ccc2[nH]c(=O)c(=O)[nH]c2c1 (stereo unspecified)
  -15%	-14

Reprinted from the part before: 2 entries, then new ones.
Order of values: motility	motility viability
CS(=O)(=O)N1CCc2cc(C(=O)N3CCOCC3)ccc21
  13%	-1
O=C(O)C1CCCN1S(=O)(=O)c1ccc2[nH]c(=O)c(=O)[nH]c2c1 (stereo unspecified)
  -15%	-14
CC1CCCC(C)N1C(=O)c1cc(F)c(F)cc1Cl (stereo unspecified)
  7%	-1
Cc1ccc(Oc2coc3cc(OCc4ccc([N+](=O)[O-])cc4)ccc3c2=O)cc1
  9%	28
CNC(=O)c1cc(Nc2nnc(-c3ccc(C)c(S(N)(=O)=O)c3)c3ccccc23)ccc1OC
  -4%	5
Fc1cccc(NC(=S)N2CCN(C/C=C/c3ccccc3)CC2)c1
  15%	5
CC(C)OC(=O)c1ccc(NC(=O)c2ccc(Cn3cc(Cl)cn3)cc2)cc1
  -2%	2
CCN(CC)C(=O)Cc1cc(C(=O)O)c2ccccc2n1
  -7%	-3
Cc1cc(C)n2c(SCC(C)(C)NS(=O)(=O)c3ccccc3)nnc2n1
  8%	-2
S=C(NCc1ccco1)NNC(=S)NC1CCCCC1
  17%	-9
COC(=O)c1ccc(C2C(Oc3ccccc3)C(=O)N2CCc2ccc(F)cc2)cc1 (stereo unspecified)
  8%	11
CCC(Sc1nccn1C)C(=O)Nc1ccc(S(N)(=O)=O)cc1 (stereo unspecified)
  18%	25
C[C@@H](NC(=O)C1CCN(Cc2cccc(Cl)c2)CC1)c1ccccc1
  20%	5
OC(CNCc1ccccc1F)c1ccccc1 (stereo unspecified)
  10%	-5
O=C(Cc1ccc(-c2ccccc2)cc1)N1CCN(c2ccccn2)CC1
  10%	2
CCOC(=O)Nc1sc(-c2ccccc2)cc1C(=O)OCC
  -3%	-5
Oc1ccc(C(=S)N2CCCC2)cc1Cl
  -9%	0
CC(C)(Oc1ccc(Cl)cc1)C(=O)Nc1nnc(C(F)(F)F)s1
  21%	20
COC(=O)NC1CSCC1OC(=O)c1ccc(Br)cc1 (stereo unspecified)
  23%	3
Cc1nnc(NCCO)c2ccccc12
  33%	5
COC(=O)N1C2C=CC(C2)C1(C(F)(F)F)C(F)(F)F (stereo unspecified)
  -10%	-4
O=C(COc1ccc(S(=O)(=O)N2CCCC2)cc1)NCC1CCCO1 (stereo unspecified)
  5%	-2
O=C(NCCN1CCN(C(=O)c2ccccc2Br)CC1)C(=O)Nc1ccc(Cl)cc1
  22%	5
O=C(CSC1=NCCS1)N1CCN(c2ccccc2)CC1
  16%	3
CCOC(=O)C1CCN(Cc2c(O)c3ccccc3oc2=O)CC1
  -5%	-2
Cc1nc(NNC(=O)c2ccc(Cl)cc2Cl)cc(-c2ccccc2)n1
  -14%	-6
O=C(COc1ccc(Cl)cc1Cl)N1CCC(CN2C(=O)c3cccc4cccc(c34)C2=O)CC1
  -15%	-9
CCOC(=O)c1ccc(NC(=O)C2(c3ccc([N+](=O)[O-])cc3)CCCC2)cc1
  5%	-1
CCOC(=O)C(Cc1ccccc1)SC#N (stereo unspecified)
  8%	-2
CCOC(=O)c1c(C)n(C)c2ccc(OC)c([N+](=O)[O-])c12
  17%	-3
FC(F)(F)c1cccc(NC(=S)Nc2ccc(Cc3ccncc3)cc2)c1
  17%	-1
C=CCn1c(=S)[nH]c2ccc(Br)cc2c1=O
  1%	-5
O=c1cc(O)n(-c2ccc(Cl)cc2)c(=S)[nH]1
  -8%	-4
CS(=O)(=O)N1CCC(C(=O)N2CCN(Cc3ccc4c(c3)OCO4)CC2)CC1
  -1%	-7
Brc1cccc(-c2n[nH]c(-c3ccccc3)n2)c1
  21%	2
CC(=O)NS(=O)(=O)c1ccc(NC(=S)NC(=O)c2ccc(-c3cccc(Cl)c3Cl)o2)cc1
  75%	23
Cc1ccc(S(=O)(=O)N2CCN(c3nc(-c4ccc(F)cc4)cs3)CC2)cc1
  -18%	-8
C=CCN(Cc1ccc(OC)c(OC)c1)C(=O)NC1CCCCC1
  -22%	-6
COc1ccc(CNC(=O)CC#N)cc1
  -11%	-3
OC(COc1c(F)cc(Br)cc1F)CN1CCN(c2ccccc2F)CC1 (stereo unspecified)
  26%	-3
CC(NC(=S)NCC1CCCO1)c1ccncc1 (stereo unspecified)
  -7%	-10
Cc1cccc(NC(=O)c2ccccc2OCc2ccccc2F)n1
  10%	22
OC(COc1ccc2ccccc2c1Br)Cn1cnc(-c2ccccc2)c1 (stereo unspecified)
  -10%	-3
Cc1cc(C(F)(F)F)nn1Cc1ccc(C(=O)O)o1
  6%	-5
O=c1cc(-c2ccc([N+](=O)[O-])cc2)nc2c(-c3cccc4ccccc34)c(Cc3ccccc3)[nH]n12
  8%	-1
OCc1cc(Cl)ccc1OCc1cccc2ccccc12
  23%	3
O=C(NCCC1=CCCCC1)C1CCCO1 (stereo unspecified)
  5%	25
CS(=O)(=O)N(CC(=O)O)c1ccc2c(c1)OCO2
  12%	-8
Cc1ccc(N(Cc2ccccc2F)S(C)(=O)=O)cc1C
  10%	-5
O=C(c1cccc([N+](=O)[O-])c1)c1cc2ccccc2o1
  8%	-1
O=S(=O)(NC(=NC1CCCCC1)c1ccccc1)c1cccs1
  11%	11

Rewritten with bars between the fields: part of the list above
molecule | motility | motility viability
FC(F)(F)c1cccc(NC(=S)Nc2ccc(Cc3ccncc3)cc2)c1 | 17% | -1
C=CCn1c(=S)[nH]c2ccc(Br)cc2c1=O | 1% | -5
O=c1cc(O)n(-c2ccc(Cl)cc2)c(=S)[nH]1 | -8% | -4
CS(=O)(=O)N1CCC(C(=O)N2CCN(Cc3ccc4c(c3)OCO4)CC2)CC1 | -1% | -7
Brc1cccc(-c2n[nH]c(-c3ccccc3)n2)c1 | 21% | 2
CC(=O)NS(=O)(=O)c1ccc(NC(=S)NC(=O)c2ccc(-c3cccc(Cl)c3Cl)o2)cc1 | 75% | 23
Cc1ccc(S(=O)(=O)N2CCN(c3nc(-c4ccc(F)cc4)cs3)CC2)cc1 | -18% | -8
C=CCN(Cc1ccc(OC)c(OC)c1)C(=O)NC1CCCCC1 | -22% | -6
COc1ccc(CNC(=O)CC#N)cc1 | -11% | -3
OC(COc1c(F)cc(Br)cc1F)CN1CCN(c2ccccc2F)CC1 (stereo unspecified) | 26% | -3
CC(NC(=S)NCC1CCCO1)c1ccncc1 (stereo unspecified) | -7% | -10
Cc1cccc(NC(=O)c2ccccc2OCc2ccccc2F)n1 | 10% | 22
OC(COc1ccc2ccccc2c1Br)Cn1cnc(-c2ccccc2)c1 (stereo unspecified) | -10% | -3
Cc1cc(C(F)(F)F)nn1Cc1ccc(C(=O)O)o1 | 6% | -5
O=c1cc(-c2ccc([N+](=O)[O-])cc2)nc2c(-c3cccc4ccccc34)c(Cc3ccccc3)[nH]n12 | 8% | -1
OCc1cc(Cl)ccc1OCc1cccc2ccccc12 | 23% | 3
O=C(NCCC1=CCCCC1)C1CCCO1 (stereo unspecified) | 5% | 25
CS(=O)(=O)N(CC(=O)O)c1ccc2c(c1)OCO2 | 12% | -8
